AID504770: E. coli YBA685 growth inhibition, screen for V. cholerae RctB inhibitors; E. coli YBA685 rctB-dependent plasmid, OD600 growth, 3 h; active compounds read low; z-score (test concentration not listed); 130,000 compounds, 0.27% hits;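 active means z-score under -2 on both plates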;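 further: wells of about 30 µL received 100 nL stock; score is relative to mean and SD of the test wells; the first replicate is given; strong numbers were not always called active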
Ba CapD inh: CapD enzyme inhibition; 140,000 compounds, 0.23% hits; z-score (test concentration not listed); purified CapD enzyme, fluorescence intensity read-out; active compounds read low; some hits fall short of the stated cut; AID 492967;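 active means z-score under -4 in either of two replicates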;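 further: stock transfer was 100 nL into about 40 µL; score is relative to mean and spread of the plate; one replicate is shown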
* = called active by the depositor; x = no result given. Rows are unselected. About 0.37% of those tested had a hit in this group.

Order of values: AID504770, Ba CapD inh
COc1ccc(-c2onc(C)c2C)cc1S(=O)(=O)Nc1ccc(N2CCC(C)CC2)cc1
→ 0.9, -1.69
c1nc(Nc2ccc(N3CCOCC3)cc2)c2ccsc2n1
→ 0.6, x
CCOC(=O)c1oc2ccccc2c1COC(=O)CNC(=O)c1cccs1
→ -0.15, x
COCCNC(=S)Nc1ccccc1
→ -0.3, x
Cc1cc(N=CN(C)C)no1
→ x, 0.355
CCN(CC)S(=O)(=O)c1ccc(O)cc1
→ -0.65, 0.17
CCCCNC(=O)Cn1nnc(-c2cccc(C(F)(F)F)c2)n1
→ 0.75, x
CN(C(=O)c1ccc(N)cc1)c1ccccc1
→ 0.75, 0.755
O=C(Nc1ccc(C(F)(F)F)cc1)N1CCCN(c2ncc(C(F)(F)F)cc2Cl)CC1
→ x, 0.24
OCCCc1nc2ccccc2n1Cc1ccc(F)cc1
→ -0.55, -0.155
CCOC(=O)c1c(C)n(-c2ccccc2)c2ccc(OC(=O)c3ccco3)cc12
→ 0.35, 0.585
N#CC1=C(N)C(C#N)(C#N)[C@@H](c2ccc(F)cc2)[C@@H]2CCCC=C12
→ x, 0.45
Cc1ccccc1C1CC(=O)c2c(ccc3ccccc23)N1 (configuration not stated)
→ -0.75, 2.46
O=C(NC1CCCC1)N1CC=C(c2c[nH]c3ccccc23)CC1
→ 0.1, 3.65
COC(=O)C1CC23C=CNC4CCC5(c6ccccc6NC15C2C)C43 (configuration not stated)
→ -0.8, x
COc1ccccc1CNC(=O)[C@@H]1CCCN1S(=O)(=O)c1ccc(C)cc1
→ -0.5, x
COc1cccc(OCc2nnc(SCc3ccccc3)n2C)c1
→ -0.25, x
CN(CCC#N)c1ccc(/C=C2\CC/C(=C\c3ccc(N(C)CCC#N)cc3)C2=O)cc1
→ -0.2, -1.23
Cc1[nH]n(-c2ccccc2)c(=O)c1C(=O)C(F)(F)F
→ -0.8, x
COc1ccc(/C=C2\C=C(c3ccccc3)N(c3ccc(C(C)=O)cc3)C2=O)cc1Br
→ x, -0.23
O=c1cc(CSc2nnnn2-c2ccccc2)[nH]c2[nH]n(-c3ccccc3)c(=O)c12
→ -0.05, -0.9
CCOC(=O)c1cnc2cc(-c3cccs3)nn2c1C
→ x, 3.89
COC(=O)c1sc(=S)n(-c2ccccc2)c1N
→ -1.8, -0.005
CCOC(=O)c1cnc(SCc2c(C)cc(C)cc2C)nc1C(F)(F)F
→ -0.25, 0.345
CCC(C)NC(=O)c1ccc2c(=O)n(Cc3ccc(OC)cc3)c(=O)[nH]c2c1 (configuration not stated)
→ -0.45, -1.4
CNCc1cc(=O)[nH]c2ccccc12
→ -0.4, x
CN(C)C(=O)C12CC3CC(CC(C3)C1)C2
→ -0.55, 0.85
CCn1cc(C(=O)NCCc2ccc(OC)c(OC)c2)c(=O)c2cc(S(=O)(=O)N(C)C)ccc21
→ 0.35, 1.56
CCOc1ccc(Br)cc1S(=O)(=O)Nc1ccc(N)cc1
→ 1.3, x
CSc1nc(NC(C)=O)nc(C)c1Br
→ -0.15, x
CC(=O)NCCc1nc2ccccc2n1CCOc1ccccc1C
→ -0.65, 0.05
CC1C2CC(CN2C(=O)Cc2c[nH]c3ccccc23)CC1(C)C (configuration not stated)
→ 1.4, x
CCC(=O)Nc1cc(NC(=O)CC)cc(C(=O)O)c1
→ 0.2, 0.075
O=C(CCc1nc(-c2ccc(Cl)cc2)no1)Nc1ccc(F)cc1
→ 0.75, -0.18
O=c1[nH]c2cc(F)ccc2c(O)c1-c1ccccc1
→ 1.15, 1.07
O=C(Nc1ccc2oc3ccccc3c2c1)C1COc2ccccc2O1 (configuration not stated)
→ 0.5, x
CCN(CC(=O)Nc1ccc2c(c1)CCC2)CC(=O)Nc1ccc2c(c1)OCCO2
→ 0.15, x
c1csc(-c2cnc3n2CCCC3)c1
→ -0.4, 0.215
O=C(O)C1=C(C(=O)Nc2ccc(F)c(Cl)c2)CCCC1
→ -0.65, x
CN(C)Cc1c(O)ccc2oc3c(c12)C(=O)CCC3
→ x, 6.04
CC(=O)NCCNC(=O)CCCCCNC(=O)OCc1ccccc1
→ x, 0.26
N#Cc1c(F)cccc1NCCc1ccccn1
→ -0.95, 70
COC(=O)CSc1nnc(-c2ccccc2)o1
→ 0.1, -0.6
COc1ccc(-c2cc3ccccn3c2C(=O)c2cccnc2)c(OC)c1
→ -0.8, -1.71
NC(=O)c1nnc2ccc(Cl)cc2c1N
→ -0.45, 0.92
CCOC(=O)C1=C(C(=O)OCC)SC(=C2C(=S)C(C)(C)N(C(=O)c3ccc([N+](=O)[O-])cc3)c3ccc(C)cc32)S1
→ x, -0.335
O=C(NCSc1ncccn1)c1ccccc1
→ 0.9, -0.955
OCn1c2ccccc2c2ccccc21
→ -0.15, 10.8
CC(C)(C)C(=O)C[n+]1cccc(C(N)=O)c1
→ -0.1, 7.64
O=C(O)/C=C/C(=O)Nc1ccc(-n2nc(C(F)(F)F)cc2C(F)(F)F)cc1
→ x, 0.28

Remaining list, next part
| SMILES | AID504770 | Ba CapD inh |
| --- | --- | --- |
| CN(C)c1ccc(C(=O)Nc2ccc(-c3nc4ccccc4o3)cc2)cc1 | -0.15 | x |
| O=C(O)COc1ccc(N2C(=O)C3C4c5ccccc5C(c5ccccc54)C3C2=O)cc1 (configuration not stated) | x | -0.055 |
| O=C(Cn1c(=O)sc2ccccc21)Nc1sc2c(c1C(=O)O)CCCC2 | -0.45 | -0.05 |
| Cc1cccc(NC(=O)CSc2ncnc3c2oc2ccccc23)c1C | -0.85 | -0.085 |
| Cc1ccc(OC(=O)CCc2c(C)nc3ncnn3c2C)cc1 | -0.8 | 0.095 |
| CC(C)[C@H](NC(=O)c1ccccc1)C(=O)OCc1nnc(-c2ccccc2)o1 | 1.7 | x |
| O=C(c1ccc2c(c1)ncn2C1CCCCC1)n1ccnc1 | -1 | 0.49 |
| COc1cccc(CC(=O)OCC(=O)c2cccc(Cl)c2)c1 | 1.3 | -0.49 |
| O=C1/C(=C/c2ccc(-c3ccc(Br)cc3)o2)C=C(c2ccccc2)N1c1cccc(Cl)c1 | x | 0.14 |
| CC(C)(C)c1ccc(O)c(NC(=O)OCCn2cccc2)c1 | x | 0.005 |
| Cc1ccc2c(c1)cc1c(=O)n(CC(=O)N3CCCC3)nc(C)n12 | -0.65 | -0.185 |
| CN1C(=O)S/C(=C/c2ccccc2OCc2ccc(C(=O)O)cc2)C1=O | -0.5 | -0.535 |
| Cc1cc(C)c(C)c(S(=O)(=O)NCCNc2ccccc2)c1C | x | -1.25 |
| CCOC(=O)c1sc(Nc2ccccc2)nc1C | 0.1 | 23.7 |
| COC(=O)c1sccc1NC(=O)c1cccs1 | 0.1 | 1.46 |
| O=C(OCc1cc(-c2ccc(Cl)cc2)on1)c1ccc(Cl)cc1Cl | x | -0.205 |
| CC1(CC(=O)Nc2ccccc2)NN=C(c2ccccc2)S1 (configuration not stated) | -1.25 | -0.675 |
| COC(=O)C1C(=O)C2=C(CC1C)Nc1ccccc1NC2c1ccc(O)c(OC)c1 (configuration not stated) | 0 | x |
| CC(=O)N(C1=NCCCCS1)c1ccccc1 | -0.3 | x |
| CCOC(=O)C1=C(C)NC2=C(C(=O)C(C(=O)OCC)C(c3ccc(OC)cc3)C2)C1c1ccsc1 (configuration not stated) | x | 1.4 |
| CC1CC(C)CN(S(=O)(=O)c2ccc3c(c2)oc(=O)n3CC(=O)NC(C)c2ccccc2)C1 (configuration not stated) | 2.55 | -0.055 |
| Cc1cc(NC(=O)CCCC(=O)O)no1 | -0.2 | -0.03 |
| CC(=O)Nc1cc(=O)oc2ccc(NC(=O)c3ccc(F)cc3)cc12 | x | 1.97 |
| O=C(Nc1ccc(S(=O)(=O)NCc2ccco2)cc1)C1=NN(C2CCS(=O)(=O)C2)C(=O)CC1 (configuration not stated) | -0.5 | x |
| Cc1cccn2cc(CNC(=O)c3ccco3)nc12 | -1.35 | x |
| C=CCn1c2ccccc2c2nnc(SCc3ccc4nonc4c3)nc21 | 0.1 | 0.58 |
| CCOCCOC(=O)C1=C(C)NC2=C(C(=O)CC(c3cccs3)C2)C1c1coc2ccc(C)cc2c1=O (configuration not stated) | x | 0.125 |
| CCOC(=O)Nc1ccc2ncn(C)c(=O)c2c1 | 0.5 | 5.04 |
| O=C(OCC(=O)N1CCCCC1)c1ccccc1O | 0 | 0.385 |
| CCCCN(C)C(=O)c1cn(C2CCCC2)c(=O)c2c1c1ccccc1n2C | -1.05 | 75.4 |
| COc1ccc2cc(/C(C)=N/OC(=O)Nc3cc(Cl)cc(Cl)c3)ccc2c1 | x | 7.6 |
| Cc1cc(C(F)(F)F)nc2c(Br)c(C(C)(C)C)nn12 | 1.4 | 0.03 |
| CN(C)C(=N)c1n[nH]nc1SCc1ccccc1 | -0.05 | 58.2 |
| Cc1ccc(NC(=O)c2ccccc2N)cc1C | x | 29 |
| CCOC(=O)c1sc(SC)c(S(C)(=O)=O)c1N | -0.65 | -0.545 |
| C=C(C)CN=C1SC(C(=O)Nc2sc3c(c2C(=O)OC)CCC3)C(N)=C1C(N)=O (configuration not stated) | -0.25 | x |
| COc1cc(OC)c(C(=O)CCCN2CCCC2)c(OC)c1 | x | -0.055 |
| N#Cc1c(-c2ccc3c(c2)OCO3)cc(-c2ccccc2)nc1N | -1 | 45 |
| O=C(c1ccc(Cl)cc1)C1CCN(C(=O)N2CCOCC2)CC1 | -0.1 | x |
| CCOC(=O)Cc1csc(COc2ccc(C3SCCS3)cc2)n1 | 0.15 | 0.585 |

Laid out differently: entries from further up.
COc1cc(OC)c(C(=O)CCCN2CCCC2)c(OC)c1
  AID504770 = x	Ba CapD inh = -0.055

CCOC(=O)Cc1csc(COc2ccc(C3SCCS3)cc2)n1
  AID504770 = 0.15	Ba CapD inh = 0.585

O=C(c1ccc(Cl)cc1)C1CCN(C(=O)N2CCOCC2)CC1
  AID504770 = -0.1	Ba CapD inh = x

CCOC(=O)c1sc(SC)c(S(C)(=O)=O)c1N
  AID504770 = -0.65	Ba CapD inh = -0.545

For reference, some entries already given.
| SMILES | AID504770 | Ba CapD inh |
| --- | --- | --- |
| CN(C)C(=N)c1n[nH]nc1SCc1ccccc1 | -0.05 | 58.2 |
| Cc1ccc(NC(=O)c2ccccc2N)cc1C | x | 29 |

Following part:
| SMILES | AID504770 | Ba CapD inh |
| --- | --- | --- |
| O=C(O)CCC(=O)Nc1cc(C(F)(F)F)ccc1N1CCCC1 | -3.2 | -0.285 |
| CC12CN(C(=O)Cc3ccccc3)CC(C)(CN(C(=O)Cc3ccccc3)C1)C2=O | 0.15 | -0.175 |
| O=S(=O)(Nc1ccc(O)cc1)c1cc(Br)ccc1Br | -0.85 | -0.43 |
| O=C(c1cc2ccccc2oc1=O)N(Cc1cccs1)Cc1cccs1 | -0.6 | x |
| COC(=O)/C(=C\Nc1ccc(Oc2ccccc2)cc1)NC(=O)c1ccccc1 | x | -0.815 |
| COC(=O)c1ccc(NS(=O)(=O)c2ccc(C)cc2)c(NS(=O)(=O)c2ccc(C)cc2)c1 | x | 0.46 |
| Oc1ccc(-c2ncc(-c3ccncc3)c(-c3ccc(C(F)(F)F)cc3)n2)cc1 | x | -0.35 |
| S=c1[nH]nc(CCn2c3ccccc3c3ccccc32)n1-c1ccccc1 | -0.15 | x |
| COc1cc(NC2c3ccccc3C(=O)N2c2cc(C)ccn2)cc(OC)c1OC (configuration not stated) | 0.2 | -0.61 |
| CS(=O)(=O)/C(C#N)=C/Nc1cccnc1 | -0.9 | -0.75 |
| FC(F)(F)c1ccccc1CNCCc1c[nH]c2ccccc12 | 0.65 | -0.14 |
| Cc1ccc2c(COC(=O)CNC(=O)c3ccc(Br)o3)cc(=O)oc2c1 | -0.3 | x |
| Oc1ccc(/C=N/NC(=S)N2CCOCC2)cc1 | 0 | x |
| O=C(Cc1cccs1)Nc1cccc(C(=O)Nc2ccco2)c1 | -0.8 | -0.515 |
| Cc1c(Cl)cccc1N=CC12c3ccccc3C(c3ccccc31)C1C(=O)N(c3ccccc3[N+](=O)[O-])C(=O)C12 (configuration not stated) | x | -0.245 |
| CSCC(=O)Nc1cc(C)on1 | -0.5 | 0.6 |
| O=S(=O)(NCCc1c[nH]c2ccccc12)c1cc(C(F)(F)F)cc(C(F)(F)F)c1 | x | 0.025 |
| C=CCn1c(SCC(=O)C(C#N)c2nc(C)cs2)nc2ccccc21 (configuration not stated) | 0.1 | x |
| N#CC1(N2CCN(C3(C#N)CCCC3)CC2)CCCC1 | -0.8 | -0.38 |
| Cc1ccc(-c2nn(C)c(=O)c3ccccc23)cc1CNC(=O)Nc1ccccc1 | 2.7 | 1.5 |
| Cn1c(=NC(=O)C2CC2)sc2ccc3ccccc3c21 | -0.4 | x |
| Cc1ccc(N2C(=O)/C(=C/c3ccc(N(C)C)cc3)S(=O)(=O)C2c2ccccc2)cc1 (configuration not stated) | x | -0.14 |
| CCC(CO)N=Cc1ccc(O)c(OC)c1 (configuration not stated) | 0.1 | x |
| CCCc1cnc(N2CCN(C(=O)c3cc(C)on3)CC2)nc1 | -0.2 | 19.8 |
| Cc1cc(NC(=O)c2ccc(COC(=O)Cn3cnnn3)cc2)ccc1Cl | 0.05 | x |
| CC(c1ccn[nH]1)n1cncn1 (configuration not stated) | 1.1 | -0.825 |
| COc1ccc(CSc2nc(N)nc(-c3cccs3)c2C#N)cc1 | x | 3.26 |
| Cc1ccc(C(=O)O)cc1S(=O)(=O)N1CCSCC1 | -0.15 | x |
| Cc1cc(C)c(C#N)c(SCC(=O)N2CCCC2)n1 | -0.65 | x |
| COc1ccc2c(c1)CC/C(=C\c1ccc(C)cc1)C2=O | x | -0.065 |
| O=C(NCCc1ccccc1)C1CCC(=O)N1Cc1ccc(F)cc1 (configuration not stated) | 0.55 | 0.04 |
| FC(F)(F)c1cc(C(F)(F)F)c2ccc(N/N=C/c3ccccc3)nc2n1 | x | -0.09 |
| Clc1ccc(NCc2cccnc2)c(Cl)c1 | x | -0.66 |

Compound activity deposited in PubChem BioAssay by ICCB-Longwood Screening Facility, Harvard Medical School.
